# HPGD inh – HPGD (human) dehydrogenase inhibition; P15428; purified HPGD, NADH fluorescence kinetic, PGE2 substrate; Potency, µM, without a hit: at the highest dose activity change, negative = inhibition, most hits filed as inhibitors; hit rate 4.3% among 150,000; active = well fitted inhibition curve with a large enough effect (not every such curve was filed as active); inconclusive = small, poorly fitted or top-dose-only effect, or another doubt; inactive = no such curve, though single readings can be large or run the other way;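 also: top concentration of the series not given in the record; plate controls included wells without enzyme; inactives centre near -10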
# Target sequence (P15428 whole entry, looked up): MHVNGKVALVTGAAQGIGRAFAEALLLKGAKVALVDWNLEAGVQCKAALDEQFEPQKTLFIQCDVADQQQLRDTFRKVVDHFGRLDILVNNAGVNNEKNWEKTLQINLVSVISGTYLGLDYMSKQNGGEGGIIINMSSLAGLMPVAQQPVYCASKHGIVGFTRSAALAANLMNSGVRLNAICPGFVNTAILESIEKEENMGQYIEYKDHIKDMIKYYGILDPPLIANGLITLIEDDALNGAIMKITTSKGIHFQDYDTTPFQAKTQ
#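 20 nM HPGD preincubated 15 min at room temperature with compound in 50 mM Tris-HCl pH 8, 0.01% Tween 20. Started with 1 mM NAD+ and 30 uM prostaglandin E2; NADH fluorescence (360/450 nm) read 5 times over 30-s intervals, last minus first.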
# An asterisk follows results filed as active; ? = inconclusive; & = joins results of further samples. % is scaled to controls: 0 for no effect and ±100 for the full control effect; potency is read from the fitted curve at half-maximal effect.
item	compound	HPGD inh
1	O=[N+]([O-])c1ccc(NCCNc2ccc(Cl)nn2)cc1	-15.5%
2	O=C(c1ccco1)n1c(=S)nc2ccccn21	11.2µM*
3	CC(=O)Nc1ccc(C2Nc3ccccc3C(=O)N2C2CCCCC2)cc1 (stereo not drawn)	?
4	C[N+](C)(C)c1ccc(/C=N/Nc2nc(Cl)c(C#N)c(Cl)c2Cl)cc1	-23.8%
5	COC(=O)[C@@]1(Cc2ccccc2)[C@H]2c3cc(C(=O)N4CCCC4)n(CC4CC4)c3C[C@H]2CN1C(=O)c1ccccc1	-9.7%
6	COc1ccc(-c2c(C(C)=O)c(C)nc3sc4c(c23)NC(c2ccccc2)NC4=O)cc1 (stereo not drawn)	?
7	Cc1ccc2c(c1)nnn2C1CCN(S(=O)(=O)c2ccc(C(=O)N(C)C3CCCCC3)cc2)CC1	-9.2%
8	COc1cc(S(=O)(=O)Nc2ccc(C)cc2)ccc1N=Cc1c(C)[nH]n(-c2ccccc2)c1=O	?
9	CCCCCCC(=O)Nc1nc(C)c(-c2csc(Nc3ccccc3OC)n2)s1	?
10	N#Cc1ccccc1NC(=O)COc1c(Br)cc(Br)c2cccnc12	-10.0%
11	Cc1ccc(NC(=S)N2CCN(c3ncccn3)CC2)cc1C	-6.4%
12	COc1ccc(C2C(C(=O)OCC3CCCO3)=C(C)NC3=C2C(=O)CC(c2ccco2)C3)cc1O (stereo not drawn)	-5.2%
13	O=C(Oc1oc(-c2ccco2)nc1C=Nc1ccccc1)c1ccco1	2µM*
14	CCCCOc1ccc(C2=NNC(=O)CC2)cc1	-21.9%
15	CC12CCC3c4ccc(OCc5ccccc5)cc4CCC3C1CC(O)C2O (stereo not drawn)	-4.4%
16	COc1cc([N+](=O)[O-])ccc1NC(=O)CC1SC(=Nc2ccc(F)cc2)N(CCC2=CCCCC2)C1=O (stereo not drawn)	-9.1%
17	O=C(CCN1C(=O)COc2ccccc21)N1CCCCC1	-7.5%
18	CC(C)(C)c1ccc(/C=N/Nc2ccc(C(=O)O)cc2)cc1	14.1µM*
19	CC1CCCCC1NC(=O)CSc1nnc(N)s1 (stereo not drawn)	17.8µM*
20	O=C(NCC1CCCO1)C1CCCN(c2ncccn2)C1 (stereo not drawn)	-22.5%
21	CN1CCN(Cc2cc(Cl)c3cccnc3c2OC(=O)c2cccs2)CC1	-15.1%
22	CC1CCCC(NC(=O)CSc2nnc(N)s2)C1C (stereo not drawn)	28.2µM*
23	CC(=O)C1=C(C)NC(SCC(=O)c2ccccc2)=C(C#N)C1c1ccco1 (stereo not drawn)	31.6µM*
24	O=C(Nc1ccc(F)cc1)N(Cc1nnc2n1CCCCC2)c1ccccc1	3.1%
25	COC(=O)c1ccc(COc2ccc(C3C4=C(CCCC4=O)Nc4onc(C)c43)cc2)cc1 (stereo not drawn)	?
26	CCCCNC(=S)N(C)/N=C/c1ccccc1C(=O)O	-8.6%
27	Cc1cnc(NC(=O)CSc2c(Cl)cccc2Cl)s1	-12.6%
28	COc1cc(OC)cc(C(=O)Nc2ccccc2NC(C)=O)c1	-14.6%
29	CC1(C)CC(=O)C2=C(C1)NC(=O)CC2c1cc2c(cc1Br)OCO2 (stereo not drawn)	-10.5%
30	O=C(CSc1ccc2nnc(-c3cccnc3)n2n1)NCC1CCCO1 (stereo not drawn)	?
31	C=CCc1ccc(OC)c(OC)c1	-8.7%
32	CCN(CC(=O)NCc1ccccn1)S(=O)(=O)c1ccc(Cl)cc1	22.4µM*
33	CCCCC(CC)C(=O)NCC(C)NC(=O)C(CC)CCCC (stereo not drawn)	-6.2%
34	COc1ccccc1CNC(=O)C/C(C)=N/NC(=O)COc1ccc(C)cc1Br	0.6%
35	CC(C)(C)C1CCC(=NNC(=O)CN(c2ccccc2)S(=O)(=O)c2ccccc2[N+](=O)[O-])CC1 (stereo not drawn)	-19.8%
36	Cc1nc2ccccc2nc1SCC(=O)N1CCC(C)CC1	-10.3%
37	COc1ccc(Cl)cc1NC(=O)Cc1c(F)cccc1Cl	-11.6%
38	C[C@H](NS(=O)(=O)c1ccc(Cl)cc1)C(=O)OCC(=O)NC(=O)Nc1ccc2c(c1)OCCO2	-13.6%
39	CN1/C(=C\C=N\NC(=O)c2ccccc2Br)C(C)(C)c2ccccc21	-29.9%
40	Cc1cccc(-n2c(SCC(=O)NCc3ccc4c(c3)OCO4)nc3ccccc3c2=O)c1	-11.0%

# In another format: entries from further up.
33: CCCCC(CC)C(=O)NCC(C)NC(=O)C(CC)CCCC (stereo not drawn)
- HPGD inh = -6.2%

16: COc1cc([N+](=O)[O-])ccc1NC(=O)CC1SC(=Nc2ccc(F)cc2)N(CCC2=CCCCC2)C1=O (stereo not drawn)
- HPGD inh = -9.1%

# (next part)
item	compound	HPGD inh
41	COC(=O)c1c(F)c(F)c(N2CCOCC2)c(F)c1F	-6.8%
42	CCN(CC)Cc1c(CC(C)C)oc(C)c1C(=O)O	-3.4%
43	CC(O)(CS(=O)(=O)Cc1cccc(C(F)(F)F)c1)C(=O)Nc1cccc(C(F)(F)F)c1 (stereo not drawn)	-2.4%
44	COc1cc(C(=O)NCC(c2cccs2)N(C)C)cc(Cl)c1OC(C)C (stereo not drawn)	-6.8%
45	O=C(CSc1nnc2ccccn12)Nc1ncc(Cl)cc1Cl	-6.1%
46	Cc1cc(SCC(=O)N2CCCC2)nc2ccccc12	12.6µM*
47	Cc1ccc(S(=O)(=O)N(C)CC(=O)N2CCCC2)cc1	-12.7%
48	COC(=O)c1ccc(C2NC(C(=O)O)CS2)cc1 (stereo not drawn)	-6.9%
49	Cc1ccc(C)c(C(=O)CSc2nnnn2-c2cccnc2)c1	-11.7%
50	CCOc1ccc(-c2cc(NC(=O)Cn3ncc4c3-c3ccccc3OC4)on2)cc1OCC	-25.1%
51	Cc1ccc2nc(Cc3ccc(N)cc3)oc2c1	-7.4%
52	CO[C@H]1C[C@@H](O[C@@H]2[C@H](C)[C@H](O[C@@H]3O[C@@H](C)C[C@@H](N(C)C)[C@@H]3O)[C@H](C)C[C@]3(CO3)C(=O)[C@H](C)[C@H](O)[C@H](C)[C@H](C)OC(=O)[C@@H]2C)O[C@@H](C)[C@H]1O	2.3%
53	CN(C)c1ccc(/C=C2/NC(=O)NC2=O)cc1	-9.7%
54	CN(C)c1nc2ccccc2c(N)c1-c1ccccc1	-13.8%
55	Oc1ccc2ccccc2c1C=Nc1ccccc1-c1nc2ccccc2[nH]1	?
56	COC(=O)c1[nH]c2ccccc2c1NC(=O)CN1CCCCCC1	-16.4%
57	Cn1c(N=NC(=O)c2ccccc2)c(O)c2ccccc21	-14.7%
58	CN(C)CCN(Cc1ccc(Cl)cc1)c1ccccn1	-9.6%&-8.4%
59	CCOC(=O)C1CCN(S(=O)(=O)c2c(C)n(C)c(=O)n(C)c2=O)CC1	-5.3%
60	Cc1ccc(Cn2c(S(=O)(=O)O)nc3ccccc32)cc1	-16.2%
61	COc1ccc(NC(=O)c2ccc3snnc3c2)cc1	-17.7%
62	CCOc1ccc2c(c1)c1nnc(SCC3CCCO3)nc1n2C (stereo not drawn)	?
63	COc1c(Cl)cc(-c2noc(C)c2C(=O)NCCc2ccc(C)cc2)cc1Cl	-10.9%
64	Cn1cccc1Cc1nnc(SCC(=O)NCc2ccccc2Cl)n1-c1ccc(F)cc1	-4.5%
65	Cc1cc(C)cc(N(CC(=O)NCc2ccco2)C(=O)c2snc(C(N)=O)c2N)c1	?
66	O=C(CSc1cccc2cccnc12)N1CCCC1	?
67	COCCN(C(=O)CSc1nnc2cc(C)c3ccccc3n12)c1c(N)n(Cc2ccccc2)c(=O)[nH]c1=O	-17.0%
68	Cc1cccc(NC(=O)CN2C(=O)COc3ccc(Cl)cc32)c1	-4.5%
69	CC(=O)NC12CC3CC(C1)CC(C(=O)OCC(=O)Nc1ncc(Cl)cc1Cl)(C3)C2	-8.7%
70	Cc1cc(C)c2cc(CN(Cc3cccnc3)C(=O)c3ccc(F)cc3)c(Cl)nc2c1	4.7%
71	Cc1nn(CC(=O)Nc2ccc(N(C)C)cc2)c(C)c1[N+](=O)[O-]	-9.0%
72	COc1cc(C(=O)N2CCC(NC(=O)C(Cc3ccc(C(C)C)cc3)NC(C)=O)CC2)cc(OC)c1OC (stereo not drawn)	-21.0%
73	Cc1ccc(S(=O)(=O)CC(=O)c2ccc(C)c([N+](=O)[O-])c2)cc1	-11.9%
74	COc1ccc(C2=NOC(C(=O)NCc3ccc(F)cc3)C2)cc1 (stereo not drawn)	-7.2%
75	O=C(O)c1c(Cl)c(Cl)c(Cl)c(Cl)c1C(=O)N1CCCC1	-1.0%
76	CCc1ccccc1NC(=S)NC1CC2CCC(C1)N2Cc1ccco1 (stereo not drawn)	-2.3%
77	O=C(Nc1ccc2nn(-c3ccccc3)nc2c1)c1cccnc1	-13.6%
78	Cc1ccnc(SCCn2c(Br)nc3c2c(=O)[nH]c(=O)n3C)n1	-9.5%
79	CC(=NCc1ccc2c(c1)OCO2)C1=C(O)c2ccccc2C1=O	-1.5%
80	CCN(CC)CCCNC(=O)c1sc2nc(-c3ccc(F)cc3)cn2c1C	-9.0%

# Ordered by heavy-atom count (high to low): some entries from above.
item	compound	HPGD inh
70	Cc1cc(C)c2cc(CN(Cc3cccnc3)C(=O)c3ccc(F)cc3)c(Cl)nc2c1	4.7%
80	CCN(CC)CCCNC(=O)c1sc2nc(-c3ccc(F)cc3)cn2c1C	-9.0%
61	COc1ccc(NC(=O)c2ccc3snnc3c2)cc1	-17.7%

# Next part:
item	compound	HPGD inh
81	CC(C)CC(c1nnnn1C1CCCC1)N1CCN(c2ccccc2F)CC1 (stereo not drawn)	-7.9%
82	CCOC(=O)c1sc(NS(=O)(=O)c2cc(C)ccc2C)nc1C	-8.2%
83	COC(=O)CNC(=O)C1(C)C=CC2(CCCCC2)N1C(C)=O (stereo not drawn)	-8.4%
84	Cc1csc(NC(=O)C2CCC(C)(C(=O)O)C2(C)C)n1 (stereo not drawn)	-0.6%
85	Cc1nn(C)cc1CNC(=O)COc1ccc(Cl)cc1Cl	-18.6%
86	CCC(=O)c1ccc(OCC(=O)N2CCc3cc(OC)c(OC)cc3C2)cc1	-12.9%
87	COc1ccc(-c2ccnc(SCC(=O)c3ccc(Cl)cc3)n2)cc1	-19.2%
88	O=C(N/N=C/c1ccc(OC2CSC2)cc1)c1ccccc1	-11.0%
89	c1ccc(Cn2c(-c3ccccc3)nc3nc4ccccc4nc32)cc1	?
90	Cc1ccc(-c2noc(-c3ccccc3C(=O)N3CCN(C)CC3)n2)cc1	0.5%
91	Cc1cc(NC(=O)CSc2nc3ccccc3c(=O)n2Cc2ccccc2)no1	-13.0%
92	CCOC(=O)N1CCN(C(=S)NC(C)(C)C)CC1	-0.9%
93	CCNc1nc(OCCNS(=O)(=O)c2cc(C)ccc2C)nc(N(C)C)n1	-0.7%
94	O=C(CSc1nc(-c2ccco2)cc(C(F)(F)F)n1)Nc1ccccc1C(F)(F)F	-18.2%
95	CC1(C)CC(CC(=O)Nc2ccccn2)C(=O)O1 (stereo not drawn)	-5.2%
96	O=C(Nc1ncccn1)c1cccs1	-5.6%
97	CCOC(=O)c1ccc(NC(=O)c2cccc(S(=O)(=O)N3CCOCC3)c2)cc1	-12.9%
98	Cc1ccc(S(=O)(=O)N2CCOCC2)cc1C(=O)N1c2ccccc2Sc2ccccc21	-0.9%
99	CC(C)(C)C1CCc2c(C(=O)NNC(=O)CCCC(=O)O)csc2C1 (stereo not drawn)	-3.5%
100	COC(=O)c1nn(-c2ccc(OC)cc2)c(=O)c2c(N)sc(C)c12	-27.1%
101	NC(=O)CC[C@@H]1NC(=O)[C@H](CO)NC(=O)c2cc([N+](=O)[O-])cc(I)c2NCCCC[C@@H](C(N)=O)NC(=O)[C@H](Cc2ccc(O)cc2)NC1=O	-1.3%
102	O=C(CCc1nc(-c2ccccc2F)no1)NCCN1CCc2ccccc2C1	-6.0%
103	O=C1c2ccccc2C(=O)N1CC(O)CNc1ccc(Br)cc1 (stereo not drawn)	-3.5%
104	CC(Oc1ccc(Cl)cc1Cl)C(=O)Nc1ncccn1 (stereo not drawn)	-28.1%
105	Cc1ccccc1SCc1noc(C(=O)NC(C)C)c1C(=O)O	-21.6%
106	CCc1noc(N)c1C(=O)Nc1ccc(F)c(Cl)c1	-9.7%
107	CC(CCC#N)[N+](=O)[O-] (stereo not drawn)	-2.5%
108	COc1ccc(-n2nnnc2Sc2ccc(S(=O)(=O)N3CCOCC3)cn2)cc1	7.08µM*
109	O=C(O)CCC/C=C\C[C@@H]1CO[C@H](C(F)(F)F)O[C@@H]1c1ccccc1O	-10.5%
110	O=C(COc1ccc(/C=N/NS(=O)(=O)c2ccccc2)cc1)Nc1ccccc1	-18.3%
111	CCOC(=O)c1[nH]c2ccccc2c1NC(=O)CC	-24.1%
112	Cc1ccccc1C(=O)Oc1ccccc1C(=O)N1CCOCC1	-8.6%
113	Cc1ccc(C(=O)N[C@H](C(=O)Nc2cc(Cl)cc(Cl)c2)C(C)C)cc1	-1.1%
114	CCS(=O)(=O)c1ccc(C(=O)Nc2cccc(Cl)c2)c(Cl)c1Cl	-8.2%
115	CCOc1ccc(C(O)Cn2c(=N)n(CCN3CCCCC3)c3ccccc32)cc1 (stereo not drawn)	-6.4%
116	COCCN(CC(=O)NC1CCCCC1)C(=O)CSc1nc2ccccc2o1	0.2%
117	CCOC(=O)C(NC(=O)CC)(Nc1sc2c(c1C(=O)OC)CCN(C)C2)C(F)(F)F (stereo not drawn)	-5.8%
118	COc1ccc(/C=N/NC(=O)c2ccccc2O)cc1Cn1cc(Cl)cn1	-34.1%
119	CC1CN(c2nc3ccccc3nc2C(C#N)C(=O)NC2CCCCC2)CC(C)O1 (stereo not drawn)	-16.7%
120	Cc1cc(N2CCOCC2)ncc1[N+](=O)[O-]	0.0%
121	CCc1ccc2[nH]c(=O)c(C3C(C#N)=C(N)Oc4c3ccc3cccnc43)cc2c1 (stereo not drawn)	-17.4%

# Bioassay records from PubChem BioAssay.

# Only part of the results is shown; rates above refer to the full screens.
